From PubChem BioAssay
Resorufin autofl – compounds fluorescent in resorufin spectral region; Compound fluorescence, resorufin region 547/598 nm, buffer; active compounds read high; max dye-equivalent concentration, M; hit rate 0.04% among 59,000; active = above 10 nM dye equivalent; inconclusive = 1 to 10 nM; inactive = 1 nM or less; a few of its hits are not listed in these tables; also: highest value over a series up to 38 µM
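Read-out: intrinsic compound fluorescence at ex 547/em 598 nm after 15 min at RT in pH 8.0 Tris (100 mM). Values expressed as resorufin-equivalent concentration from per-plate standard series.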
TSHR ag – agonists of human thyroid stimulating hormone receptor | Potency, µM (highest dose often 57.1 µM), for the others: top-dose activation, usual class: activators | HEK293-CNG-TSHR cells (CNG channel as cAMP sensor), membrane potential dye, cAMP | hit rate 0.48% among 73,000; active = well fitted activation curve of enough size with the parental cells flat; inconclusive = any curve in the parental cells; inactive = parental cells flat and receptor cells flat or falling; also: potency is read from the fitted curve at half-maximal effect; % of control where 0% means no effect; weak receptor curves with flat parental cells got no call and are not listed
Target sequence (P16473 whole entry, looked up): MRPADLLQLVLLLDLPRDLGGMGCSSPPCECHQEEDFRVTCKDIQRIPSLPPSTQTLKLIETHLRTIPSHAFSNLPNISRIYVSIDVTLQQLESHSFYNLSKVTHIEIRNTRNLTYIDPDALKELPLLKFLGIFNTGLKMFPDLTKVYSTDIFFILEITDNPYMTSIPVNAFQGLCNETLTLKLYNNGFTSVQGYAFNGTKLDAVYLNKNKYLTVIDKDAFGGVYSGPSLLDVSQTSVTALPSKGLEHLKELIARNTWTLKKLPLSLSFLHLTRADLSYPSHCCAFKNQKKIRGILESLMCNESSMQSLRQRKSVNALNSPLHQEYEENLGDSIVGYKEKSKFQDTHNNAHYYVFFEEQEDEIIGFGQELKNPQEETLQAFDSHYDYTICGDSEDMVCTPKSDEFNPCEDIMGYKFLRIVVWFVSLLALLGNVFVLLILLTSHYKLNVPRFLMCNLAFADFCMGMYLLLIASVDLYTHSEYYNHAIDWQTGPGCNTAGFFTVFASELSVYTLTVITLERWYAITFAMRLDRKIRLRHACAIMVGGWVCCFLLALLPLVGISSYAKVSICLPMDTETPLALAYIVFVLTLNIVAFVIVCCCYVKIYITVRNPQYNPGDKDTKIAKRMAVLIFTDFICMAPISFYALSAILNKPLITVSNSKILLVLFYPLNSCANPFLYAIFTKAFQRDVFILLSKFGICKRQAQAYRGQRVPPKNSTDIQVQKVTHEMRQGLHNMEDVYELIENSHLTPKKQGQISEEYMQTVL
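cAMP rise detected as CNG-channel membrane depolarization by fluorescent dye (emission 590 nm), 30 min after compound, following 60 min dye loading containing 100 uM RO 20-1724 at room temperature. Cells: TSHR/CNG HEK 293, with parental CNG HEK 293 as control.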
A488 fluor – compound autofluorescence in A488 spectral region; compound autofluorescence, A488 spectral region, dye equivalency; active compounds read high; max dye equivalency, M; hit rate 0.1% among 59,000; AID 591; active = above 10 nM dye equivalent; inconclusive = 1 to 10 nM; inactive = 1 nM or less; about half of its hits are not listed in these tables;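 also: highest value over a series up to 38 µM; compound alone in buffer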
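Read-out: relative fluorescence at 480/540 nm, expressed as Alexa 488 dye-equivalent concentration from a six-point A488 standard included per plate. Conditions: 100 mM Tris, pH 8.0; 15 min incubation, room temperature.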
AID923 – qHTS Assay for Allosteric/Competitive Inhibitors of Caspase-1: Spectroscopic Profiling in AFC Spectral Region. compound fluorescence, AFC spectral region (405/520 nm); almost no hit is shown here. AID 923, 2007. hit rate 1.1% among 75,000. Potency, µM (top dose mostly 57.5 µM), for the others: top-dose fluorescence increase, hits mostly activators; active = well fitted activation curve with a large enough effect; inconclusive = small, poorly fitted or top-dose-only effect;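 also: potency is read from the fitted curve at half-maximal effect; 0% is about no effect; scaled to a free AFC standard on each plate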
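Compound autofluorescence profiled at 405 nm ex/520 nm em during kinetic caspase 1 run (50 nM enzyme, 5 uM Ac-WEHD-AFC, HEPES pH 7.5, 10 mM DTT). Titration up to 57 uM; baseline from regression intercept, normalized to AFC standard curve.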
A647 fluor – compound fluoresces in the A647 spectral region; Compound fluorescence, A647 channel (570/671 nm), Tris buffer; max dye-equivalent concentration, M; 59,000 tested, under 10 active; active means above 1 µM dye equivalent; inconclusive means 0.1 to 1 µM; inactive means 0.1 µM or less;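 also: values scaled relative to a standard on each plate; highest value over a series up to 38 µM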
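Each compound's intrinsic fluorescence at 570 nm excitation and 671 nm emission is measured across its concentration series in 100 mM Tris, pH 8.0, after 15 min at room temperature, and reported relative to an A647 curve.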
* = called active by the depositor; i = inactive; ? = inconclusive; / = not tested or not shown; & = joins results of further samples; [ ] = another dose, or the depositor's remark. Some of the compounds tested; count on the stated rates, not on these rows.

SMILES	Resorufin autofl	TSHR ag	A488 fluor	AID923	A647 fluor
O=C1CN(C(=O)COC(=O)Cc2ccsc2)c2ccccc2N1	i	16.1%	i	2.5%	1e-09
Cc1ccsc1-c1nc(CSCC(=O)NCc2ccc3c(c2)OCO3)c(C)o1	/	20µM*	/	-1.1%	/
CS(=O)(=O)c1ccc2nc(NC(=O)C3COc4ccccc4O3)sc2c1 (stereo not drawn)	i	18.2%	i	-2.1%	2.94e-08
O=C(NCCNC(=O)C1CC2CCC1C2)C1CC2CCC1C2 (stereo not drawn)	i	19.6%	i	-1.5%	3.92e-08
COc1cc2ccccc2cc1C(=O)Nc1ccc(N2CCN(C)CC2)cc1	i	?	i	0.2%	2.46e-08
CN(C)C(=O)Cn1c(SCC(=O)N2CCCc3ccccc32)nc2ccccc21	i	-2.3%	i	-0.3%	4.1e-09
O=c1c(CCc2ccccc2)nc2cnc(N3CCNCC3)nc2n1Cc1ccc(F)cc1	i	3.4%	i	-0.7%	3.24e-08
Cc1cc(C)n(CC(=O)n2nc(C)cc2C)n1	i	/	i	/	1e-09
CN(C)c1nc(Nc2ccccc2)nc(Oc2ccc(=O)[nH]n2)n1	i	-3.3%	i	0.6%	1.3e-09
O=C(Cc1ccccc1)Nc1c2c(nn1-c1cccc(Cl)c1)CS(=O)(=O)C2	i	?	i	1.7%	1e-09
N#Cc1ccc(CN2CC3(CCN(C(=O)c4ccco4)CC3)C2)cc1	i	-0.8%	i	1.3%	2.9e-09
c1ccc(-c2ccc(-c3ccc(C4=NCCN4)cc3)o2)cc1	i	5.2%[11.4 µM]	i	?	4.3e-08
O=S(=O)(c1cccc(-c2nnc(-c3ccc(Br)cc3)o2)c1)N1CCCCCC1	/	24.1%	/	0.1%	/
Cc1nc(NC(=O)c2ccccc2)sc1-c1csc(NCc2ccco2)n1	i	-16.0%	i	9.2%	1.37e-08
O=c1[nH]c(SCc2ccc(F)cc2)nc2c1cnn2-c1ccc(F)cc1	/	2.5%	/	-2.5%	/
CCOC(=O)C1=C(C)NC(=O)NC1c1cc(C)sc1C (stereo not drawn)	i	2.1%	i	0.5%	1e-09
O=C(NCc1ccco1)c1cc(-c2ccccc2)c(N2CCOCC2)s1	i	-7.0%	i	4.8%	1.58e-08
COC(=O)c1ccc(CSc2ncnc3c2oc2ccccc23)o1	i	?	i	1.6%	1e-09
CN1C(=O)NC(c2ccccc2)C2=C1CN(Cc1ccco1)C2=O (stereo not drawn)	/	0.6%	/	-4.7%	/
COC(=O)CCC(=O)c1oc2ccc(Br)cc2c1N	i	3.0%	i	1.2%	3.94e-08

Full records, looked up by structure:
Listed for COC(=O)c1ccc(CSc2ncnc3c2oc2ccccc23)o1 = Resorufin autofl = i; TSHR ag = ?; A488 fluor = i; AID923 = 1.6%; A647 fluor = 1e-09
Listed for Cc1ccsc1-c1nc(CSCC(=O)NCc2ccc3c(c2)OCO3)c(C)o1 = Resorufin autofl = /; TSHR ag = 20µM*; A488 fluor = /; AID923 = -1.1%; A647 fluor = /

Next part:
SMILES	Resorufin autofl	TSHR ag	A488 fluor	AID923	A647 fluor
COc1cccc(NS(=O)(=O)c2nc3nc(C)cc(C)n3n2)c1	/	?	/	-2.4%	/
Cc1cc(C(=O)CC#N)c(C)n1-c1ccc(OC(F)F)cc1	i	?	i	-0.6%	2.9e-09
Cc1c(N=Cc2ccco2)c(=O)n(-c2ccccc2)n1C	/	?	/	-1.3%	/
COc1ccccc1-c1nc(C#N)c(N2CCN(c3ccccc3)CC2)o1	i	?	i	3.7%	1.06e-08
CC(=O)C1=C(O)C(=O)N(CCc2c[nH]c3ccccc23)C1c1ccco1 (stereo not drawn)	i	0.6%	i	5.5%	3.58e-08
O=S(=O)(Nc1ccc2c(c1)OCO2)c1cccs1	i	-7.4%	i	-0.8%	1e-09
CN1CCN(C(=O)c2ccccc2NC(=O)Cc2ccccc2)CC1	/	-11.4%	/	0.3%	/
O=C(O)C1(NS(=O)(=O)c2ccc(F)c(Cl)c2)CCCCC1	i	24.3%	i	1.7%	9.8e-09
CCc1cc2c(NCCC(=O)O)nc(C)nc2s1	i	-1.5%	i	2.5%	1.55e-08
CCOC(=O)C1CCCN(C(=O)Cn2cnc3c2c(=O)n(C)c(=O)n3C)C1 (stereo not drawn)	/	-4.7%[11.4 µM]	/	-0.6%	/
C/C(CCN1CCCCc2nc(C)c(C)cc21)=N\OC[C@@H](O)[C@@H]1O[C@@H]2OC(C)(C)O[C@@H]2[C@H]1O	/	0.4%[11.4 µM]	/	-3.6%[11.5 µM]	/
C=CCn1c(SCC(=O)N2CCN(c3ccc(F)cc3)CC2)nnc1-c1ccco1	/	33.6%	/	3.7%	/
NCCCCCc1nnc(SCc2ccccc2Cl)o1	i	6.9%	i	0.4%	1e-09
NCCCSC1=NCCCN1	i	2.4%	i	-0.3%	1.72e-08
C/C(=N/Nc1ccc2ccccc2n1)c1ccccc1O	i	-11.8%[11.4 µM]	i	-0.9%[11.5 µM]	1e-09
CSc1nc(N)c2ncn([C@H]3O[C@H](COP(=O)(O)OP(=O)(O)O)[C@@H](O)[C@@H]3O)c2n1	/	4.0%	/	-0.7%	/
COc1ccc(CCC(=O)N2CC(C)OC(C)C2)cc1 (stereo not drawn)	i	4.0%	i	0.0%	2.32e-08
Cc1ccc(S(=O)(=O)OC2CCN(C)CC2)cc1	i	-3.3%[11.4 µM]	i	1.3%[11.5 µM]	1e-09
O=C(N/N=C/c1ccccc1O)c1cc(-c2ccccc2)n[nH]1	/	21.5%	/	-3.6%	/
CCOC(=O)c1cnc2c(-c3ccccc3)c(C)nn2c1N	i	?	i	0.6%	1e-09
COCCNC(=O)c1c(N)sc2c1CCCC2	i	-14.5%	i	9.3%	1.24e-08
COc1ccc(S(=O)(=O)Cc2ccccc2)cc1N	i	4.7%	i	2.0%	4.64e-08
O=C(Cn1ncc2c(=O)oc3ccccc3c21)N1CCN(c2ccccn2)CC1	i	-3.3%	i	-0.8%	2.6e-09
CN(C)C(=O)N1CCC(C(=O)NCc2ccc(F)cc2Cl)CC1	i	28.8%	i	-0.9%	1.66e-08
O=C(CSc1ncnc2c1cnn2-c1ccccc1Cl)N1CCN(C(=O)c2ccco2)CC1	i	8.1%	i	0.6%	2.66e-08
CCN1CCN(Cc2cc(=O)oc3cc(C)cc(C)c23)CC1	i	11.0%	i	-1.1%	1.01e-08
N#Cc1cnn(Cc2ccccc2)c1N	i	10.3%	i	1.7%	2.14e-08
CCC(=O)N1CCc2cc(S(=O)(=O)Nc3ccc4c(c3)OCCO4)ccc21	i	?	i	1.7%	1.7e-09
c1ccc2cc3[nH]c(CN4CCOCC4)nc3cc2c1	i	-6.0%	i	-0.6%	9.9e-09
O=C1c2ccccc2C(=O)C12Cc1ccccc1N1CCN(c3ccccc3)CC12 (stereo not drawn)	i	/	i	0.5%	4.9e-09
Clc1ccc(Cc2noc(CN3CCN(c4ccccc4)CC3)n2)c(Cl)c1	i	6.8%	i	2.3%	4.6e-09
Cc1ccc(OC(C)c2nnc(N)s2)cc1Cl (stereo not drawn)	i	14.1%	i	-1.3%	2.79e-08
COc1ccccc1NC(=O)CNS(=O)(=O)c1ccccc1	i	5.3%	i	-0.1%	9e-09
Cc1cc(C)nc(N(C#N)CC(=O)N2CCC(C(N)=O)CC2)n1	i	/	i	-1.9%	9.5e-09
Cc1ccc(C(C)n2cc(C(=O)NCc3cccnc3)nn2)cc1 (stereo not drawn)	i	1.2%	i	-0.4%	1e-09
O=C(Cn1cnc2c(nnn2Cc2ccccc2)c1=O)NCc1ccco1	/	33.0%	/	-0.2%	/
Cc1cccc(Nc2nc(NC(C)C)nc(Oc3ccc(=O)n(C)n3)n2)c1	i	/	i	-3.1%	4.72e-08
CN1CCN(c2cc(-c3ccccc3C(F)(F)F)ncn2)CC1	i	5.6%	i	-0.7%	3.6e-09
S=C(Nc1ccccc1)Nc1nccs1	i	-9.1%	i	-2.9%	2.52e-08
O=C(O)C1C2CCC(C2)C1C(=O)NCc1ccco1 (stereo not drawn)	i	18.8%	i	-1.3%	1e-09

Reformatted: 3 of the compounds above
Every second line gives: Resorufin autofl	TSHR ag	A488 fluor	AID923	A647 fluor
COc1cc2ccccc2cc1C(=O)Nc1ccc(N2CCN(C)CC2)cc1
 : i	?	i	0.2%	2.46e-08
CN(C)C(=O)Cn1c(SCC(=O)N2CCCc3ccccc32)nc2ccccc21
 : i	-2.3%	i	-0.3%	4.1e-09
O=c1c(CCc2ccccc2)nc2cnc(N3CCNCC3)nc2n1Cc1ccc(F)cc1
 : i	3.4%	i	-0.7%	3.24e-08

(list continues)
SMILES	Resorufin autofl	TSHR ag	A488 fluor	AID923	A647 fluor
O=C(CCC(=O)N(Cc1ccco1)C(C(=O)NC1CCCC1)c1ccncc1)Nc1cccnc1 (stereo not drawn)	i	-2.3%	i	1.4%	5.3e-09
CCc1nnc(NC(=O)CCC(=O)O)s1	/	0.7%	/	-1.1%	/
CCc1nnc(NC(=O)CSc2nnc(Cc3ccccc3)o2)s1	i	10.2%[11.4 µM]	i	-0.4%	5.1e-09
CC(=O)Nc1nc(=S)n(-c2ccccc2)[nH]1	/	5.9%[11.4 µM]	/	-0.4%	/
CC(C)(C)c1ccc(OC2C=CC(C#Cc3ccccc3)OC2CO)cc1 (stereo not drawn)	/	2.0%[11.4 µM]	/	3.1%[11.5 µM]	/
COc1ncnc2c1oc1nc(C(C)C)c3c(c12)CC(C)(C)OC3	i	/	i	0.0%	7e-09
Cc1nc2c(cnn2-c2ccc(Cl)cc2)c(=O)n1-c1ccc2c(c1)OCCO2	i	2.5%	i	1.3%	7.7e-09
CS(=O)(=O)Nc1nnc(Cc2ccccc2)s1	i	1.8%	i	-0.4%	4.7e-09
Cc1cc(SCC(=O)Nc2c(C)n(C)n(-c3ccccc3)c2=O)n2c(nc3ccccc32)c1C#N	i	-2.1%	i	4.5%	1e-09
COCCn1c(=O)[nH]c2cc(C(=O)NCCCN3CCN(c4ccc(F)cc4)CC3)ccc2c1=O	i	-0.1%	i	2.0%	3.9e-09
Cc1cc(Cl)ccc1OCC(=O)OC(C)C(=O)NC(N)=O (stereo not drawn)	i	-3.1%	i	-0.8%	2.78e-08
Cc1cccc(OCC2=N/C(=C\N(C)C)C(=O)O2)c1	/	0.1%	/	0.2%	/
COc1ccc(-n2c(C)cc(C(=O)Cn3c(NCCO)nc4ccccc43)c2C)cc1	i	10.8%	i	-1.7%	3.34e-08
CC(=O)c1c(COC(=O)c2cccnc2)nc2ccccc2[n+]1[O-]	i	-3.7%	i	0.4%	1e-09
C=CCSC1=C(C#N)C2(CCCCC2)C(C#N)C(=O)N1 (stereo not drawn)	/	0.1%	/	0.6%	/
COc1ccc(-c2cn3ccsc3n2)cc1	i	/	i	/	8.59e-08
CCC(=O)[C@@]1(C)[C@H](C)C[C@@H]2[C@@H]3CCC4=CC(=O)C=C[C@@]4(C)[C@H]3[C@H](O)C[C@]21C	i	-13.2%[25.6 µM]	i	-2.5%[25.7 µM]	4.63e-08
CCOc1ccc(-n2c(SCC(=O)Nc3nccs3)nc3c(c2=O)SCC3)cc1	/	1.6%	/	-0.7%	/
CCOCCCNC(=O)C(C)NS(=O)(=O)c1ccc(C)cc1 (stereo not drawn)	i	2.8%	i	0.6%	1.21e-08
COc1ccc(OC2C(O)COC2/C=C/C#Cc2ccc(F)cc2F)cc1 (stereo not drawn)	/	3.8%&-5.9%[11.4 µM]	/	-0.4%&0.3%[11.5 µM]	/
CS(=O)(=O)N(CC(=O)N1CCCCCC1)c1cccc(Br)c1	/	?	/	0.3%	/
CCOc1ccc(-c2noc(CCC(=O)NC)n2)cc1OCC	i	4.7%	i	-0.3%	1.45e-08
O=C(Nc1ccc(-c2nc3ccccc3o2)cc1)c1ccc2c(c1)OCO2	i	23.5%	i	-0.4%	2.3e-09
O=CN1CC(=O)N(c2ccccc2)c2c([nH]c3ccccc23)C1	i	-0.7%	i	0.1%	1e-09
